Yeast UUG start – yeast start codon fidelity modulation | S. cerevisiae UUG-firefly luciferase reporter, luminescence/redox ratio | activity score, % at 18.7 µM | hit rate 0.13% among 350,000;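 active = replicate mean at a twofold rise or more, about +100% in these data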;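 note: firefly luciferase made from a UUG start codon reports start codon fidelity; reporter light over untreated wells divided by growth signal over untreated wells; some hits fall short of that in this replicate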
MT1-MMP act inh – blocks activation of human MT1-MMP; P50281; HT1080 RFP-PRO-GFP cells, GFP/RFP ratio fluorescence, overnight; percent of plate control window, DMSO zero; GFP/RFP ratio change, % at 20 µM; hit rate 0.061% among 360,000; AID 651647;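 active = GFP/RFP ratio change of at least 30% with cell ATP level not reduced by more than half and red fluorescence within 50% of control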; note: strong numbers were not always called active
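Assay system: HT1080 cells carrying an RFP-PRO-GFP reporter | Dosing: Single dose of 20 µM compound, 1% DMSO final | Incubation: Cells overnight before dosing, compound overnight, 37 °C, 5% CO2 | Evaluation: GFP/RFP fluorescence ratio | Control set: DMSO and RFP-L50D-GFP cell wells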
HIV Env fusion – blocks HIV Env-driven cell-cell fusion. AID 651610. inhibition, % at 12.3 µM. HeLa-JRFL Env/CEM21 cell fusion, luciferase. hit rate 1.1% among 360,000;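 active = mean replicate inhibition score of at least 50 and every replicate individually at or above 50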;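 note: 0% = plate neutral controls and 100% = maraviroc near 300 nM; one replicate is shown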
CSC inhib – blocks cancer stem cells; inhibition, % at 7.5 µM; hit rate 1.1% among 300,000; cancer stem cell-like cells viability, luminescence; AID 2717;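 active = mean at 75% or more and at least half the replicates too; tested in HMLE shEcad cells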;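 note: 0% = median of negative and 100% = median of positive control wells; the first replicate is given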
Rce1 inh – inhibitors of yeast Ras-converting enzyme; Q03530; yeast membranes, quenched prenylated peptide cleavage fluorescence; calls only; hit rate 0.27% among 290,000; AID 2563;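 active = fall in fluorescence gain of 50% or more versus controls, with final raw signal at or below 3038400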;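 note: plate controls were neutral control wells for no effect and wells lacking membranes for full effect; tested at 10 µM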
Target sequence (Q03530 whole entry, looked up): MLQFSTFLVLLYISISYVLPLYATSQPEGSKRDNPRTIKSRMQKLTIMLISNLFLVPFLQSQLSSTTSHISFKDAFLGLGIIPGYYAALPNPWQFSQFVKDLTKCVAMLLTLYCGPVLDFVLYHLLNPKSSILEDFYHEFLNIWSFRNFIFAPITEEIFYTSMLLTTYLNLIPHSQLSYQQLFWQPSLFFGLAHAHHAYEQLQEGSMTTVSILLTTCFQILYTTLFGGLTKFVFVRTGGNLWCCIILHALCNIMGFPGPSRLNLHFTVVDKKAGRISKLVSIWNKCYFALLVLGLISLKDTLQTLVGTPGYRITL
eIF4H FP inh – inhibitors of RNA binding by human eIF4H | Q15056 | hit rate 0.94% among 290,000 | eIF4H fluorescence polarization binding assay | inhibition, % at 35 µM;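 active = 50% or more with normal probe brightness, or confirmed in later tests; about a fifth of its hits are not listed in these tables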;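 note: calls also rest on retests at 20 µM and on dose response follow-up; 0% = protein and probe with vehicle and 100% = probe without protein; strong numbers were not always called active; many hits fall short of the cut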
PABP FP inh – PABP-poly(A) binding inhibition; P11940; PABP-poly(A) RNA binding, fluorescence polarization; inhibition, % at 35 µM; hit rate 1% among 290,000;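 active = 50% or more with normal probe brightness, or confirmed in later tests; about a fifth of its hits are not listed in these tables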;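 note: calls also rest on retests at 20 µM and on dose response follow-up; controls were probe without protein and protein plus probe with vehicle; some compounds called inactive have numbers as strong as hits; many hits fall short of the cut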
MT1-MMP act inh RFP – further read-out of MT1-MMP act inh, marked with its call; RFP signal change, %; measured here: RFP expression control read;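 0 = vehicle wells; hits needed this value within 50% of zero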
The depositor's hits bear a star; i = inactive; / = no result given.

SMILES	Yeast UUG start	MT1-MMP act inh	MT1-MMP act inh RFP	HIV Env fusion	CSC inhib	Rce1 inh	eIF4H FP inh	PABP FP inh
Cc1ccc(NCc2n[nH]c(=S)n2-c2ccccc2)cc1	/	-2	1	-21	0	i	-6	-20
CN(CC(=O)Nc1ccc(OC(F)(F)F)cc1)C(=O)C1CCC1	-7	2	-8	3	2	/	/	/
CCCCNC(=S)Nc1ccc(F)cc1	/	4	-4	-4	/	i	-3	-3
Nc1ccc2nc(-c3cccc(-c4nc5ccc(N)cc5[nH]4)n3)[nH]c2c1	-16	11	0	-6	23	i	31	22
CCN(CC)S(=O)(=O)c1ccc(-n2cnnn2)c(C)c1	-18	3	7	/	-7	i	-18	-2
O=C1CC(Nc2ccc(N3CCOCC3)cc2)C(=O)N1c1ccccc1 (stereo unspecified)	-24	11	10	/	-11	i	2	-5
O=C(Nc1ccccc1)NC1(C(=O)NCCCN2CCOCC2)CCCCC1	-13	3	4	-36	-5	/	-4	0
COc1ccc(CNC(=S)Nc2ccccc2)cc1Cl	-21	2	0	3	5	i	-6	5
CCc1ccc2[nH]c(C(=O)Nc3ccc(Br)c(C)n3)cc2c1	-9	-7	-7	-40	/	i	2	-8
CCCC[C@@H](CN[C@H](C)CNC)NCC1CCC(C(C)(C)C)CC1 (stereo partly specified)	/	/	/	/	126*	i	-3	-6
CC1Cc2ccccc2N1C(=O)CSc1ncccc1C(=O)O (stereo unspecified)	3	4	0	/	4	i	-3	11
CCN(CC)CCOC(=O)/C=C/c1ccccc1OC	-4	3	2	/	-9	i	-5	-16
COC(=O)c1cc(S(=O)(=O)N2CCN(c3ccc(C(C)=O)cc3)CC2)c[nH]1	/	0	-9	-24	-12	i	-5	6
NC(=S)Nc1ccc2cc[nH]c2c1	/	1	2	2	-3	i	-9	-7
Cc1cc(Br)cc2c1NC(=O)C2(c1c(C)n(C)n(-c2ccccc2)c1=O)c1c(C)n(C)n(-c2ccccc2)c1=O	14	-4	11	-53	-5	i	-9	4
Cc1cc(OCC(=O)Nc2ccc(CN3CCOCC3)cc2)c2c(C)cc(=O)oc2c1	-11	6	5	13	-2	i	-8	-9
O=C(c1ccsc1)N1CCCC(N2CCN(c3cccc(Cl)c3)CC2)C1 (stereo unspecified)	4	0	-1	-10	4	i	4	-2
CC(C)(C)NC(=O)NC(=O)COC(=O)Cn1c(C(F)(F)F)nc2ccccc21	-1	-6	0	-29	-4	i	1	-4
CCCc1cc(C(=O)NNC(=S)NCC)c2ccccc2n1	-27	4	3	-11	1	i	14	-5
c1ccc(CSc2nnc(-c3cccs3)n2Cc2ccco2)cc1	-8	4	-3	7	9	i	3	9

An excerpt from above in order of molar mass, low to high.
SMILES	Yeast UUG start	MT1-MMP act inh	MT1-MMP act inh RFP	HIV Env fusion	CSC inhib	Rce1 inh	eIF4H FP inh	PABP FP inh
NC(=S)Nc1ccc2cc[nH]c2c1	/	1	2	2	-3	i	-9	-7
CN(CC(=O)Nc1ccc(OC(F)(F)F)cc1)C(=O)C1CCC1	-7	2	-8	3	2	/	/	/
CCc1ccc2[nH]c(C(=O)Nc3ccc(Br)c(C)n3)cc2c1	-9	-7	-7	-40	/	i	2	-8
Cc1cc(OCC(=O)Nc2ccc(CN3CCOCC3)cc2)c2c(C)cc(=O)oc2c1	-11	6	5	13	-2	i	-8	-9

Remaining list, next part:
SMILES	Yeast UUG start	MT1-MMP act inh	MT1-MMP act inh RFP	HIV Env fusion	CSC inhib	Rce1 inh	eIF4H FP inh	PABP FP inh
O=C(Cc1cccc2ccccc12)N/N=C1\CCCc2ccccc21	-26	2	-5	30	-7	i	-8	-5
CC1CN(C(=O)c2cc(Br)c(Br)s2)CC(C)O1 (stereo unspecified)	/	2	2	-14	5	/	/	/
COc1ccc(OC)c(C2C(C(=O)c3sc(C)nc3C)=C(O)C(=O)N2CCN2CCOCC2)c1 (stereo unspecified)	3	-2	1	/	-3	i	3	47
CCCCOc1ccc(C(=O)NCc2ccco2)cc1	-10	3	-4	0	5	i	0	-7
CCCn1c(SCC(=O)Nc2nonc2C)nnc1-c1ccoc1C	-9	0	2	/	/	/	-10	-6
CSc1nc2ccc(NC(=O)C3=NNC(=O)CC3)cc2s1	/	-2	-1	-86	8	i	-2	-2
c1ccc(CNc2ccc3c(c2)ncn3C2CCCCC2)nc1	-12	6	0	/	-13	i	-6	-10
COc1ccc(C2/C=C\CN(S(=O)(=O)c3ccc(C)cc3)CC(=O)N2Cc2ccc(F)cc2)cc1 (stereo unspecified)	14	-1	0	-1	4	i	-4	5
CCC(=O)NC(=S)Nc1ccccc1F	-18	6	1	/	-4	i	-2	-3
Cc1ccccc1CN1N=C(/C=C/c2ccccc2)CCC1=O	-9	6	-2	-4	/	i	-7	4
COC(=O)CSc1nc2ccc(NC(=O)c3ccccc3C(=O)N3CCOCC3)cc2s1	-4	-1	7	31	-14	i	-9	-4
COc1ccc(C(=O)N/C(=C\c2ccc(Cl)cc2)C(=O)NCCN2CCOCC2)cc1	-22	4	4	5	/	/	/	/
N#CC1=C(N)N=C(SCc2ccccc2)C(C(N)=O)C12CCCCC2 (stereo unspecified)	1	5	1	-13	-5	i	-10	7
COc1ccc(NS(=O)(=O)c2cc(NC(=O)c3nc4nc(C)cc(C)n4n3)ccc2C)cc1	/	-2	-3	11	4	i	-7	2
COc1ccc(N(CC(=O)N/N=C/c2cccc(OC)c2OC)S(=O)(=O)c2ccccc2)cc1	4	-1	2	-7	6	i	1	-7
C=CCSc1nc(-c2ccc(OC)cc2)c(C#N)c(=O)n1CC=C	/	-8	-13	22	/	i	2	1
Cc1ccc(C)c(N2CCN(C(=O)C3CCCN(S(=O)(=O)c4c(C)[nH]c(=O)[nH]c4=O)C3)CC2)c1 (stereo unspecified)	1	-1	0	/	-3	i	-2	0
COc1ccc(NC(=O)NCc2ccco2)cc1OC	/	0	0	17	0	/	-4	12
CC(C)CCNC(=O)C1CCN(S(=O)(=O)c2ccc3c(c2)CC(C)N3C(=O)C2CC2)CC1 (stereo unspecified)	10	2	-3	7	-13	i	-4	3
COc1ncnc2c1NC1=C(S2)C(=NCCC(=O)O)CC(C)(C)C1	/	-7	6	/	-16	i	17	7

An excerpt from above in order of the Yeast UUG start value, rising.
SMILES	Yeast UUG start	MT1-MMP act inh	MT1-MMP act inh RFP	HIV Env fusion	Rce1 inh
CCCn1c(SCC(=O)Nc2nonc2C)nnc1-c1ccoc1C	-9	0	2	/	/
COc1ccc(N(CC(=O)N/N=C/c2cccc(OC)c2OC)S(=O)(=O)c2ccccc2)cc1	4	-1	2	-7	i
COc1ccc(C2/C=C\CN(S(=O)(=O)c3ccc(C)cc3)CC(=O)N2Cc2ccc(F)cc2)cc1 (stereo unspecified)	14	-1	0	-1	i

Continued:
SMILES	Yeast UUG start	MT1-MMP act inh	MT1-MMP act inh RFP	HIV Env fusion	CSC inhib	Rce1 inh	eIF4H FP inh	PABP FP inh
CCOC(=O)C(C)c1n[nH]c(=O)c2ccccc12 (stereo unspecified)	-11	-1	2	-23	-18	i	2	-3
COc1ccccc1CNC(=O)CN1C(=O)NC(c2ccccc2)(c2ccc(C)c(C)c2)C1=O (stereo unspecified)	1	-6	-7	-2	/	/	/	/
COc1ccc(S(=O)(=O)NCC(=O)N(CC2CCCO2)C(C(=O)NC2CCCC2)C(C)C)cc1 (stereo unspecified)	3	-2	0	16	-1	i	-11	14
O=C(Nc1ccc2c(c1)OCO2)c1cncc(Br)c1	3	0	-5	4	-15	i	3	5
Cc1ccc(/C=C2/SC(=O)N(CC(=O)N3CCOCC3)C2=O)s1	-7	-7	5	1	-3	i	-6	-1
CC(C)n1nc(C(=O)NNC(=O)c2ccncc2)c2ccccc2c1=O	-16	2	0	4	/	i	/	/
COc1ccc(-n2nc(C(=O)NCC(=O)NCc3ccc(F)cc3)c3ccccc3c2=O)c(OC)c1	-2	8	4	-69	/	/	-19	-13
COc1ccc(C(=O)NCC(=O)OCC(=O)Nc2cc(OC)ccc2OC)cc1	-9	-4	4	-36	-22	i	3	5
COc1ccc(Cc2nc3ccc(C(=O)NCCCSC)cc3o2)cc1OC	-11	0	-5	-32	6	i	6	2
CCc1noc(C)c1C(=O)NNC(=O)c1cc(OC)c(OC)c(OC)c1	/	-2	5	/	-1	i	/	/
CC1CC1C(=O)OCC(=O)NCc1ccc(Cl)cc1 (stereo unspecified)	-11	-3	1	-32	-1	i	-5	0
CC(=O)Nc1ccc(Nc2nc(C)nc3c2nnn3Cc2ccccc2Cl)cc1	6	0	-8	-5	17	/	-5	0
CCOC(=O)CC1(NC(=O)c2cc(COc3c(F)cccc3F)on2)CCCCC1	19	-9	-4	4	/	i	-18	4
O=C(CCC(=O)N(CC(=O)NC1CCCCC1)Cc1ccccc1)Nc1ccccn1	/	3	2	4	-8	i	-1	3
CC1(C)CC(NC(=O)c2cc([N+](=O)[O-])cc([N+](=O)[O-])c2)CC(C)(C)N1	-8	0	-2	6	-5	i	-8	5
O=C(CSc1ccc(-c2cccnc2)nn1)Nc1ccccc1C(F)(F)F	-5	4	4	10	11	i	-4	-10
CCOc1ccc(NS(=O)(=O)c2ccc(NC(=S)NC(=O)C(C)C)cc2)cc1	-9	-6	-10	/	0	i	1	6
COc1cccc(C(O)c2ncc(-c3cccc4ccccc34)[nH]2)c1 (stereo unspecified)	3	1	-1	4	/	/	/	/
COC(=O)c1cc(-c2ccc(Cl)cc2)n(-c2ccc(S(N)(=O)=O)cc2)n1	/	-1	2	-14	-13	i	2	-7
CCOC(=O)CCCCNC(=O)Nc1ccccc1	-6	2	3	11	-10	i	-3	-1
CC(C)(C)c1ccc(S(=O)(=O)NNC(=O)C2CCN(Cc3cccc(F)c3)CC2)cc1	/	-1	0	6	4	i	5	7

Limited to Rce1 inh (2 entries from above):
SMILES	Rce1 inh
Cc1ccc(/C=C2/SC(=O)N(CC(=O)N3CCOCC3)C2=O)s1	i
CC(C)n1nc(C(=O)NNC(=O)c2ccncc2)c2ccccc2c1=O	i

Screening data (PubChem)
